# Bioassay records: PubChem, several laboratories
# PrP UTR inh – inhibition of PrP 5' UTR reporter expression; cell-based PrP 5' UTR mRNA reporter, plate reader; actives 0.35% (n = 340,000); inhibition, % (test concentration not listed);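 active = every replicate at 50% or more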;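 note: 0 = median of the neutral control wells; tested in H4 reporter cells; numbers are from one replicate; inactives centre near -14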
# Mtb hypoxia inh – PubChem AID 1159583 | M. tuberculosis hypoxia-regulated fluorescent reporter, fluorescence | fluorescence inhibition, % (concentration not given with the values) | actives 0.1% (n = 300,000);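 active = 35 to 45% if threefold the growth effect, above 45% if 1.5-fold the growth effect; inactive = the rest, general growth blockers included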;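 note: wells of about 50 µL received 100 nL stock; 0% = vehicle wells and 100% = reference inhibitor wells; whole bacteria with a GFP reporter of the hypoxia response; strong numbers were not always called active; many hits fall short of the cut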
# Autofluor counter – counter-screen for toxin protease inhibitors: compound fluorescence | compound autofluorescence counterscreen, microsphere flow cytometry; stronger effect = higher value | AID 624483 | actives 3.1% (n = 360,000) | fluorescence intensity (no concentration beside the values);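 active = at least 3 SD above the mean of all compounds, about 16000 in these data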;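 note: 100 nL of 1 mM stock went into each well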
# Sa ugtP lethal – growth inhibition of ugtP-null S. aureus, primary screen, RN4220 ugtP deletion, OD600 | 16 h; some inactives read as strong as hits | growth inhibition, % (concentration not given with the values) | actives 0.54% (n = 330,000) | AID 1259309, 2017;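 active = z-score under -3 and OD600 up to 0.15 on both plates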;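 note: plate controls were untreated wells for no effect and antibiotic for full effect; wells of about 80 µL received 100 nL stock; the first replicate is given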
# Sa RN4220 lethal – growth inhibition of S. aureus RN4220, primary screen, OD600 | actives 0.33% (n = 330,000) | 16 h | AID 1259311, 2017 | inhibition, % (no concentration beside the values);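 active = z-score of -3 or lower and OD600 up to 0.18 on both plates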;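 note: plate controls were untreated cells for no effect and reference antibiotic for full effect; stock transfer was 100 nL into about 80 µL; one replicate is shown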
# BJeLR viability – MLPCN primary cell-based screen for lethality selective to Ras in HRASV12 cells | BJeLR (HRASV12) viability, CellTiter-Glo ATP luminescence, 48 h; reference of the scale not given here | inhibition, % (test concentration not listed) | actives 0.17% (n = 300,000) | AID 1554, 2009;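 active = replicate mean above 50%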;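 note: 50 nL library stock added to about 25 µL; numbers are from one replicate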
# Mtb hypoxia inh growth – recorded beside Mtb hypoxia inh, whose call it bears; growth inhibition, %; measured here: M. tuberculosis growth (absorbance);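 0% = vehicle and 100% = reference antibiotic; read after six days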
# * hit, by the source's call; / = no result given; & = joins results of further samples. This is a random part of the collection; about 4% have a hit in one of these screens.
SMILES,PrP UTR inh,Mtb hypoxia inh,Mtb hypoxia inh growth,Autofluor counter,Sa ugtP lethal,Sa RN4220 lethal,BJeLR viability
C=CCOc1cccc(C2c3c(oc4ccc(F)cc4c3=O)C(=O)N2CCCN2CCOCC2)c1 (stereo unspecified),-3,/,/,5913,4,2.5,1
Cc1cc(C(=O)OCC(=O)N2CCC(c3ccccc3)=N2)ccc1[N+](=O)[O-],-19,14,3,5926,-2,5.7,1
COc1ccc(NC(=O)C2CCN(S(=O)(=O)c3ccc4c(c3)CC(C)N4C(C)=O)CC2)cc1OC (stereo unspecified),1,7,0,5532,-3,0.8,-1
CC(C)NC(=O)N(C)CC1Oc2ccc(NS(=O)(=O)c3ccccc3)cc2C(=O)N(C(C)CO)CC1C (stereo unspecified),/,5&5,12&9,/,6&6,4.6&1.5,/
CSc1cccc(NC(=O)CN(C2CCCCC2)S(C)(=O)=O)c1,-7,-3,5,4137,-3,-1.0,2
COc1ccc(/C=C2\SC(=S)N(CCC(=O)Nc3ccccn3)C2=O)cc1OC,0,-7,-6,5594,7,5.3,10
O=C(O)CNC(=O)c1ccc(S(=O)(=O)N2CCOCC2)cc1,-20,15,11,20309*,0,4.3,3
Cc1cc(C)c2c(c1)/C(=N/NC(=O)c1cc(C)oc1C)CCC2,-5,/,/,2072,/,/,-11
COc1cc(OC)cc(C(=O)NC(=S)NNC(=O)Cc2cccs2)c1,-13,8,-1,2017,10,25,2
O=C(Nc1cc(Cl)ccc1-n1cncn1)C1CC1,4,-11,3,4993,0,1.7,5
CCn1c(N2CCN(S(=O)(=O)c3ccccc3)CC2)nc2ccccc21,-9,9,3,3559,10,4.7,0
O=C(c1ccccc1)C(O)(CN1CCCCC1)c1ccccc1 (stereo unspecified),-15,19,1,4818,4,-1.8,/
COc1ccc(-c2nc(SCc3ccccc3)n(S(C)(=O)=O)n2)cc1,-5,-15,-1,9266,1,3.5,-6
O=C(C1CCCO1)N1CCN(S(=O)(=O)c2ccccc2)CC1 (stereo unspecified),-6,-7,3,22925*,-5,-2.3,-13
C=CCN(CC=C)C(=O)COC(=O)c1n[nH]c2ccccc12,-13,-1,5,4258,5,5.0,-5
CC(NC(=O)c1ccco1)C(c1cccs1)N1CCN(c2ccc(F)cc2)CC1 (stereo unspecified),-8,1,2,10429,19,0.5,1
CCCCc1cc(=O)oc2cc(OCC(=O)N3CCc4ccccc43)ccc12,1,1,14,4321,5,-1.4,-1
O=c1nc(-c2ccccc2)c2cc(Cl)ccc2[nH]1,-25,3,0,9256,-5,1.8,1
CCOc1ccc(NCc2nc3ccccc3n2CCOc2ccccc2)cc1,-54,-1,1,7263,-8,-3.5,-14
CC(C)(C)C1=Nn2c(nnc2-c2ccccn2)SC1,-19,5,21,10222,-2,0.6,-2

# Structural class: the compounds so far with four or more nitrogen atoms.
SMILES,PrP UTR inh,Mtb hypoxia inh,Mtb hypoxia inh growth,Autofluor counter,Sa ugtP lethal,Sa RN4220 lethal,BJeLR viability
CC(C)NC(=O)N(C)CC1Oc2ccc(NS(=O)(=O)c3ccccc3)cc2C(=O)N(C(C)CO)CC1C (stereo unspecified),/,5&5,12&9,/,6&6,4.6&1.5,/
O=C(Nc1cc(Cl)ccc1-n1cncn1)C1CC1,4,-11,3,4993,0,1.7,5
CCn1c(N2CCN(S(=O)(=O)c3ccccc3)CC2)nc2ccccc21,-9,9,3,3559,10,4.7,0
CC(C)(C)C1=Nn2c(nnc2-c2ccccn2)SC1,-19,5,21,10222,-2,0.6,-2

# The list goes on:
SMILES,PrP UTR inh,Mtb hypoxia inh,Mtb hypoxia inh growth,Autofluor counter,Sa ugtP lethal,Sa RN4220 lethal,BJeLR viability
Cc1ccc(C(=O)O)cc1NC(=O)CN1C(=O)C2C3c4ccccc4C(Br)(c4ccccc43)C2C1=O (stereo unspecified),-18,2,0,2461,10,-0.5,-10
COc1cccc(CC(=O)OCC(=O)NC(Cc2ccccc2)C(C)=O)c1 (stereo unspecified),-15,4,3,5441,1,3.2,0
Cc1cc(C)c(Cn2cnc(-c3ccc([N+](=O)[O-])cc3)c2)c(C)c1,-8,-6,-4,10440,-35,-6.1,-3
COCCCn1c(O)c(/C=C2/N=C(C#N)C(=Nc3ccc(C)cc3)O2)sc1=S,/,3,5,/,3,0.9,/
COc1ccc(NC(=O)c2ccco2)c2ccccc12,-12,4,-4,3617,5,4.5,2
Cc1ccc(C2=NN(CC(=O)NCc3ccccn3)C(=O)CC2)cc1,-9,6,4,2505,2,4.4,0
CSc1n[nH]c2nc3c(c(=O)n12)C1(CCCCC1)Cc1ccccc1-3,-8,-8,-7,5064,13,1.9,10
Clc1nssc1=Nc1nncs1,-7,6,0,3593,9,-3.7,/
O=C(CCCc1nc(-c2ccccc2)no1)NC1CCCC1,-23,3,6,5129,0,0.2,3
CCCCn1c(SC(C)C(=O)NCC2CCCO2)nc2cc(C(=O)OC)ccc2c1=O (stereo unspecified),-41,11,3,7285,-1,1.2,-6
Cc1ccc(NS(=O)(=O)c2cccc(C(=O)NCC3CCCO3)c2)cc1 (stereo unspecified),3,-4,0,5125,2,2.2,-2
CN1C=C(C(F)(F)F)C=C/C1=C(\C#N)c1nnc2n1CCCCC2,-20,3,-1,6029,3,0.2,-4
Cc1[nH]nc2c1C(c1ccc(OC(=O)c3ccco3)cc1)C(C#N)=C(N)O2 (stereo unspecified),4,26,6,3276,5,13,2
CC(C)CNC(=O)C(=O)NCCCN1CCOCC1,-30,1,19,4476,13,4.0,-5
Cc1ccccc1-c1nn(-c2ccc(F)cc2F)cc1CNCCN(C)C,-12,3,14,4062,-1,2.5,-14
S=c1[nH]nc(-c2ccccc2)n1N=Cc1ccc(Cl)cc1,/,1,4,/,3,24,/
c1csc(-c2nn3cnnc3c3ccccc23)c1,-11,5,9,4207,6,5.6,-8
CC(=C1C(=O)c2ccccc2C1=O)N1CCN(CCN=CC2=C(O)CC(C)(C)CC2=O)CC1,-35,-5,-4,2041,6,6.4,5
CN(C)N1C(N)=C(C#N)C(c2ccc(Cl)cc2)C2=C1CCCC2=O (stereo unspecified),-29,7,-6,3575,7,2.3,-5
CCOc1cc(C(=O)Nc2ccc(NC(C)=O)cc2)ccc1OCC(=O)N1CCCCC1,-20,-3,1,2067,2,-1.8,7
CC[C@@]12C(=O)N(c3cccc(C)c3)C(=O)N1C(c1ccc(Br)cc1)C1C(=O)N(C(C)(C)C)C(=O)C12 (stereo partly specified),/,5,4,/,-13,2.5,/
CC(=O)N1CCN(CC(=O)Nc2cc(F)ccc2C)CC1,-1,11,1,/,0,2.6,-14
Cc1nn(CC(=O)NCCN2CCCCC2C)c(=O)c2cc(-c3ccccc3)nn12 (stereo unspecified),-2,13,10,5310,3,6.4,5
CCc1c(C)nc(Nc2nc(C)c3ccc(OC)cc3n2)[nH]c1=O,-35,13,8,9764,3,6.7,-1
O=C(/C=C/c1ccccc1)NC(=S)Nc1ccc(CN2CCOCC2)cc1,-13,13,30,2585,31,2.3,-2
COc1cc(Cl)ccc1OCc1cc(C(=O)N(C)C2CC(C)(C)NC(C)(C)C2)no1,-2,10,-1,4495,0,2.9,1
Clc1ccccc1CO/N=C1\CCCc2nonc21,-22,/,/,6930,/,/,-7
O=C(O)C1(NS(=O)(=O)c2ccc(Cl)cc2)CCCCC1,-42,7,12,19428*,2,2.2,4
CCc1ccc(NC(=O)[C@H](NC(=O)[C@@H]2Cc3ccccc3CN2)c2ccccc2)cc1,12,-3,1,4429,-1,-0.3,4
CCn1c(O)c(C2=c3ccccc3=NC2=O)c2cc(Br)ccc21,/,7,10,/,101*,100*,4
CCOc1ccc(NC(=S)N2CCCN(Cc3cc(C)ccc3C)C2)cc1,-5,7,-4,4574,6,1.1,-7
CCn1cc(C(=O)O)c(=O)c2cc(Br)ccc21,-21,5,10,8707,8,11,-3
CCC(C)(C)NC(=O)CN(C(=O)CCC(=O)Nc1nccs1)c1ccccc1C,-2,2,-4,/,1,6.1,5
COc1ccc(CCNc2nc(C)nc3c2oc2ccccc23)cc1OC,-2,10,10,2385,-2,19,3
CCCn1cc(CN2CCCC(CNC(=O)c3ccc(F)cc3)C2)c(C)n1 (stereo unspecified),-26,7,-2,3449,13,-1.5,-2
CCCCn1c(N)c(N(CC(C)C)C(=O)c2cc(C)nc3ccccc23)c(=O)[nH]c1=O,-4,8,-3,6319,0,3.3,-1
C[C@@H](C(=O)Nc1ccc2c(c1)OCCO2)n1nnc2ccccc2c1=O,-58,12,8,5248,2,2.3,-5
CC(C)C[C@H]1CN=C(Nc2ccccc2)N1CCCC1CCCC1,-3,/,/,3037,/,/,5
COc1cccc(NC(=O)CCC2CCN(C(=O)C3CC=CCC3)CC2)c1 (stereo unspecified),-8,-2,3,5517,-7,-2.5,5
Cc1ccc2c(c1)C(c1ccccc1)=NCC(=O)N2,-5,-1,10,3706,-1,1.9,-2

# Of the compounds above, these have an aryl thioether with sulfur outside any ring.
SMILES,PrP UTR inh,Mtb hypoxia inh,Mtb hypoxia inh growth,Autofluor counter,Sa ugtP lethal,Sa RN4220 lethal,BJeLR viability
CSc1cccc(NC(=O)CN(C2CCCCC2)S(C)(=O)=O)c1,-7,-3,5,4137,-3,-1.0,2
COc1ccc(-c2nc(SCc3ccccc3)n(S(C)(=O)=O)n2)cc1,-5,-15,-1,9266,1,3.5,-6
CSc1n[nH]c2nc3c(c(=O)n12)C1(CCCCC1)Cc1ccccc1-3,-8,-8,-7,5064,13,1.9,10
CCCCn1c(SC(C)C(=O)NCC2CCCO2)nc2cc(C(=O)OC)ccc2c1=O (stereo unspecified),-41,11,3,7285,-1,1.2,-6

# (continued)
SMILES,PrP UTR inh,Mtb hypoxia inh,Mtb hypoxia inh growth,Autofluor counter,Sa ugtP lethal,Sa RN4220 lethal,BJeLR viability
Cc1ccc(NC(=O)CSc2nnc(-c3cc(C)on3)o2)cc1,-19,-13,-2,5793,-2,-0.5,-2
CCOc1ccc(-n2nc3ccc(NC(=O)c4ccc5c(c4)OCCO5)cc3n2)cc1,-25,5,-3,7882,-15,-2.9,9
CCc1c(C)nc2c(-c3ccccc3)c(C)[nH]n2c1=O,5,2,2,3695,10,6.6,7
Cc1ccc(NC(=O)CC2S/C(=N/N=C3/NC(=O)CS3)NC2=O)cc1 (stereo unspecified),-25,11,2,3264,1,-0.1,8
O=C(CNC(=O)Cn1ccc2ccccc2c1=O)NCCCN1CCCCCC1,-35,11,12,9868,-8,0.7,/
CC(=O)c1cccc(NC(=O)CC2S/C(=N/N=C/c3ccccc3)NC2=O)c1 (stereo unspecified),-8,/,/,2154,/,/,4
C=CCC(C(=O)OC)(C(=O)OC)c1ccccc1[N+](=O)[O-],-25,1,5,4393,0,-0.2,2
COCCn1cnc2c1c(=O)[nH]c(=O)n2Cc1ccccc1,10,2,4,3916,1,1.7,-7
O=[N+]([O-])c1cccc(C2Nc3cccc4cccc(c34)N2)c1,-27,/,/,10622,/,/,-8
CC(=O)OC1CC[C@@]2(C)C(CCC3C2CC(=O)[C@@]2(C)C3CC3CC(C)=CC(=O)C32)C1 (stereo partly specified),-8,3,0,4030,-5,-0.3,7
CCOC(=O)C(=O)C1C(=O)Nc2ccccc21 (stereo unspecified),-10,9,0,4363,-2,1.4,-3
CC(=O)OCC1OC(c2ccccc2)C(OC(C)=O)C(OC(C)=O)C1OC(C)=O (stereo unspecified),-3,6,8,10880,1,2.2,-6
O=C1c2ccccc2C(Nc2ccc(F)cc2F)N1CCN1CCOCC1 (stereo unspecified),-21,8,2,5639,6,7.2,-7
COc1ccc(-n2nnnc2SCC(=O)Nc2nnn(C)n2)cc1,-18,15,0,22244*,8,6.6,13
CCOC(=O)c1ccc(COC(=O)CNC(=O)CNC(=O)c2ccc(OC)cc2)o1,1,/,/,2260,5,6.3,9
O=C(NC(=S)N1CCCCC1c1cccnc1)c1ccccc1 (stereo unspecified),-5,/,/,4266,7,5.8,-13
COc1ccc(C=NNc2ccccn2)c(OC)c1OC,/,0,10,/,6,6.2,/
COc1cc(CNCCCN2CCOCC2)c(Br)cc1OC(C)C,-18,11,14,3886,10,6.6,-10
CCOc1ccc(CCNC(=O)Cc2ccc(NC3=NC4CS(=O)(=O)CC4S3)cc2)cc1OCC (stereo unspecified),0,-8,-3,5395,6,5.0,-15
N#CCSc1nc2ccccc2c(=O)n1CCCC(=O)NCc1ccco1,-6,-3,-8,2970,2,2.2,8
COC(=O)C1=C(C)N(Cc2ccc(OC)c(OC)c2)C(=O)C1,-25,/,/,2868,0,-2.0,10
O=C(Nc1cccc2ccccc12)N1CCN(c2ccc(F)cc2)CC1,5,-5,-9,2401,21,26,-4
